# Vif TR-FRET: HIV-1 Vif–A3G interaction blockers – biochemical, TR-FRET, GST-Vif 1-94, biotin-A3G peptide, dose response retest, primary screen (AID 1117319); TR-FRET GST-Vif / biotin-A3G peptide binding; higher % means a stronger effect; test concentration not given here; strong numbers were not always called active; inhibition, %, or IC50 in µM where a hit was titrated; 0.57% of 260,000 active;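 active = above the screen mean plus three standard deviations and confirmed in dose response; inconclusive = results disagree or hit not tested in dose response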;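 note: Vif residues 1-94 fused to GST binding biotinylated APOBEC3G peptide 110-148; 0% = full assay without inhibitor and 100% = GST in place of GST-Vif; retest series ran down from 100 µM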
# RanGTP-Impb inh: inhibitors of RanGTP-importin-beta interaction, primary screen, biochemical, FRET, CFP-Ran, YFP-importin-beta, homogeneous. AID 2216. 1.1% of 300,000 active. inhibition, % (concentration not given with the values). cell-free CFP-Ran/YFP-importin-beta FRET ratio;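 active = most replicates above 15%; inconclusive = exactly half above 15%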;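 note: 0% = DMSO wells and 100% = Ran loaded with GDP instead of GTP; wells of about 40 µL received 100 nL stock; the first replicate is given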
# FGF22 binding: FGF22 (human) thermal shift binding. calls only at 9.99 µM. Q9HCT0. AID 651658. recombinant FGF22 thermal shift, SYPRO orange fluorescence; percent of sucrose octasulfate shift, DMSO zero. 1.5% of 340,000 active;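 active = melting point raised past a set limit in the mean and every replicate; inconclusive = no clear call; three in four hits are not shown here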
# Target sequence (Q9HCT0 whole entry, looked up): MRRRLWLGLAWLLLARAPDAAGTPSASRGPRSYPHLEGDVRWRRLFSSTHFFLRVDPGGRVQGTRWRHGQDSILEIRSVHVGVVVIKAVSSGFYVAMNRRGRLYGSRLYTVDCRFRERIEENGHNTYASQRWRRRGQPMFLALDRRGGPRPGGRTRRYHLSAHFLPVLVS
# AF4-AF9 inh: blocks AF4 peptide binding to human AF9 | P42568 | 0.47% of 350,000 active | inhibition, % at 10 µM | AlphaScreen, biotin-AF4 peptide binding to FLAG-AF9 | AID 651704;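 active = every replicate reaching a set inhibition limit, whatever the replicate mean, cut at about 25% in these data; inconclusive = mean inhibition reaches that limit but some replicates miss it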;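 note: 0% = plate neutral control median and 100% = total signal loss; the record names both 10 and 1 µM as test concentration; the first replicate is given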
# Ecoli growth: E. coli growth inhibition; Escherichia coli growth, OD600, 23 h; hits give low values; OD600 absorbance (concentration not given with the values); 0.21% of 330,000 active; AID 1053175;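 active = OD600 absorbance below the run mean of sample wells minus 3.6 SD, in any replicate, cut at about 0.56 in these data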;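 note: stock transfer was 300 nL into about 60 µL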
# HNF4A DNA FP: change in binding of human HNF4 alpha to DNA; P41235; HNF4a-FITC DNA binding, fluorescence polarization, 1 h; activity change, % at 10 µM; 0.3% of 360,000 active; AID 1224865; in the data active = activity change above about 30%, passing the limit was not always enough;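 note: controls were the assay level and a saturating level of protein; the project sought stronger binding though the title names inhibitors; some compounds called inactive have numbers as strong as hits; positive values seem to mean higher polarization but the record does not say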
# Target sequence (P41235 whole entry, looked up): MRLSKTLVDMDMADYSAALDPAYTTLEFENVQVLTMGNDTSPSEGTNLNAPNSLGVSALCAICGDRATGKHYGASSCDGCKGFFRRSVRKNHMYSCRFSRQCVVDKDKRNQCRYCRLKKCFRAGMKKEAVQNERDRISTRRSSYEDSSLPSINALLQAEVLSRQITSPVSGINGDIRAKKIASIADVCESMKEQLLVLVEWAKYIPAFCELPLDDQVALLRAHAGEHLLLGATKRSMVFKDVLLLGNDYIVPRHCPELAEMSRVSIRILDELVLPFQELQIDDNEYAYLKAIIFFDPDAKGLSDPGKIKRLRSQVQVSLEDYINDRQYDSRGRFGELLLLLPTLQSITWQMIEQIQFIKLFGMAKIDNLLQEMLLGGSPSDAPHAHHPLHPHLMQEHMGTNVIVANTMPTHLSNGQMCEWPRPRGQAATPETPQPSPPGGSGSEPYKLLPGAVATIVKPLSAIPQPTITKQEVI
# UCH37 DUB inh: blocks the human deubiquitinase UCH37. Q9Y5K5. purified proteasome/UCH37, Ub-AMC cleavage fluorescence. 0.33% of 330,000 active. inhibition, % (concentration not given with the values);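 active = mean of two replicates above 20%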;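 note: 0% = compound-free wells with enzyme and 100% = wells lacking proteasome; stock transfer was 100 nL into about 20 µL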
# Target sequence (Q9Y5K5 whole entry, looked up): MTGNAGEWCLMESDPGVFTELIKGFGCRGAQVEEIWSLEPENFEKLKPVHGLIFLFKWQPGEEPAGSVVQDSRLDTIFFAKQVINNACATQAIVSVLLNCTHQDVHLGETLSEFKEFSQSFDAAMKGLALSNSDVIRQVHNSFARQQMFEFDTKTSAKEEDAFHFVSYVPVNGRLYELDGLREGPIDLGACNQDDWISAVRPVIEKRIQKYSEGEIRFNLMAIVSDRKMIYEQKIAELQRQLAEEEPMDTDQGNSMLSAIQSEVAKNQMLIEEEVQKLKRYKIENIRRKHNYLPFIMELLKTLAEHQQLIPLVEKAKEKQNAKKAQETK
#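 System: Proteasome-associated human UCH37 deubiquitinase; Input: 0.15 nM proteasome in added enzyme buffer; Also added: Ub-AMC substrate from 1 µM stock; Incubation: 30 min compound-proteasome preincubation then 25 min substrate reaction, room temperature; Detection: fluorescence, ex 355 nm, em 460 nm; Read-out: % inhibition of Ub-AMC cleavage fluorescence; Benchmarks: no-proteasome and no-compound wells.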
# * marks the source's active call; other numbers are inactive results; i = inactive; u = inconclusive; x = no result given. These rows are one share of the data; the hit share may differ from the screen's.
Compound,Vif TR-FRET,RanGTP-Impb inh,FGF22 binding,AF4-AF9 inh,Ecoli growth,HNF4A DNA FP,UCH37 DUB inh
O=C(Nc1ccccc1)OC1C2CCC1C(N1CCCCC1)CC2 (stereo unspecified),-3.2%,-5.0,x,x,0.696,-0.5,4.9
Nc1ncnc2sc3c(c12)CCNC3,3.7%,5.4,i,-1.6,0.671,-1.0,1.3
COc1cc2ccccc2cc1C(=O)Nc1ccc(C)cn1,x,4.8,i,-5.8,0.72,1.5,-51.5
COc1ccc(NC(=O)CNC(c2ccccc2)c2ccccc2)cc1,-0.4%,6.4,i,-12.2,0.685,-2.8,3.6
COc1cccc(N=c2oc3ccc(OC)cc3cc2-c2nc3ccccc3[nH]2)c1,9.8%,-2.6,x,x,0.65,-1.8,6.3
O=C(NCc1cccnc1)c1cc(Cl)ccc1[N+](=O)[O-],x,u,x,x,0.725,1.4,2.5
O=C(O)Cc1c(C(=O)O)[nH]c2ccc(C(=O)O)cc12,-0.5%,3.9,i,2.7,0.641,-3.4,1.9
O=C(NCCc1ccccc1)c1cccc(NC(=O)C2CCC2)c1,x,x,i,-3.0,x,-3.6,x
CN(C)S(=O)(=O)c1ccc(NC(=O)CN2CCN(c3ccccn3)CC2)cc1,-9.4%,1.7,i,0.9,0.634,-0.3,4.1
COc1ccc(CNC(=O)C2CCN(C(=O)c3ccc(-c4ccccc4)cc3)CC2)cc1,-8.9%,-3.7,i,-4.0,0.666,2.1,1.3
CCOC(=O)Cc1c(C)nc2cc(-c3ccc(Cl)cc3)[nH]n2c1=O,21.3%,0.9,x,x,0.657,4.0,-4.2
Cc1cc(=O)oc(C)c1C(=O)n1nc(C)c2c1C[C@@H]1[C@H]2C1(C)C,u,-3.3,x,x,x,52.1*,1.7
CCOc1ccccc1/C=N/Nc1ccccc1[N+](=O)[O-],1.0%,11.1,x,x,x,4.1,x
O=C(Nc1ccc(Nc2ccccc2)cc1)c1cccc(F)c1,x,5.2,i,2.0,0.692,2.4,5.8
Cc1cc(C)nc(-n2nc(C)cc2NC(=O)C(C)C)n1,5.7%,0.8,i,-0.6,0.675,-2.2,0.5
COC(=O)c1cc(C)nc(Nc2nc(C(N)Cc3ccc(F)cc3)cs2)n1 (stereo unspecified),x,x,i,5.1,x,2.4,x
O=C(CCc1ccccc1)N1CCN(S(=O)(=O)c2cccs2)CC1,x,3.1,i,-2.2,0.738,2.0,0.8
Cc1ccc(Nc2cc(C)nc3nnnn23)cc1,5.0%,-0.2,x,x,0.728,1.6,3.3
Cc1ccc(NC(=O)c2ccccc2OCc2ccc([N+](=O)[O-])cc2)nc1,u,5.2,i,0.4,0.723,1.2,4.4
Cc1c(Nc2cc(=O)oc3ccccc23)c(=O)n(-c2ccccc2)n1C,3.4%,1.7,x,x,0.693,-8.4,3.4
CCOC(=O)CCCCCC(=O)Nc1ccc2c(c1)CC(=O)N([C@@H](C)CO)C[C@@H](C)[C@@H](CN(C)C(=O)Nc1ccc(C(F)(F)F)cc1)O2,x,x,i,-2.4,0.752,4.3,5.8
COc1ccc(Cl)cc1Nc1nc(C)cc(C)c1C(N)=O,-2.7%,-0.1,x,x,0.738,1.2,-8.5
NC1CCN(c2c(F)cc3c(=O)c(C(=O)O)cn(C4CC4)c3c2Cl)C1 (stereo unspecified),x,0.2,i,-6.5,0.066*,-0.2,2.0
CC(NC(=O)CN1C(=O)NC2(CCCCC2C)C1=O)c1ccccc1 (stereo unspecified),-4.5%,x,i,0.2,0.68,-1.3,-0.5
CCC(CC)C(=O)Nc1ccc(Nc2ccccc2)cc1,14.1%,-0.5,i,2.0,0.711,-0.2,1.2
Cc1nnc(NC(=O)c2ccc3ccccc3n2)s1,-5.9%,-4.3,i,-0.7,0.696,4.3,1.5
Cc1cccc(N2C(=O)SC(N(C)c3ccccc3)C2=O)c1 (stereo unspecified),18.3%,-0.2,x,x,0.733,0.3,3.6
C/C(=N/NC(=O)c1cccs1)c1ccc(NC(=O)COc2ccc(Cl)cc2)cc1,-0.3%,2.5,x,x,x,-0.3,x
Cc1ccccc1-n1ncc(C(C)NC(=O)c2ccco2)c1C (stereo unspecified),-3.8%,-2.0,x,-3.1,0.718,1.6,5.2
COc1ccc(C(=O)N2CCN(c3ncccn3)CC2)cc1S(=O)(=O)N1CCOCC1,x,x,i,-2.1,0.71,0.0,2.4
CCCCCCn1c(SCC(=O)c2ccccc2)nc2c1c(=O)[nH]c(=O)n2C,3.4%,u,i,-0.7,0.784,0.1,2.7
CCN1CCN(c2ccc(NC(=O)c3cnccn3)cc2)CC1,u,1.0,x,x,0.686,x,5.9
N#Cc1cccc(NC(=O)CN2CCCCCC2)c1,x,0.5,i,-3.5,0.72,1.8,4.4
CN1C(=O)C2(c3ccccc31)c1c(oc3ccccc3c1=O)C(=O)N2CCO (stereo unspecified),6.0%,2.7,i,2.5,0.666,-1.9,0.1
COCOCCn1cc(CN2CCS(=O)(=O)N(Cc3ccc(-c4ccc(OC)cc4)cc3)C(CC(C)C)C2=O)nn1 (stereo unspecified),x,x,i,-1.2,x,-1.2,x
COCc1cc(=O)[nH]c(Cc2c(Cl)cccc2Cl)n1,2.6%,-2.4,i,-1.0,0.667,-0.8,3.4
CCOCCCNC(=O)C1CCN(S(=O)(=O)c2cc(Br)cc3c2N(C(=O)CC)CC3)CC1,x,-1.9,i,-2.8,0.672,1.1,-0.7
CN(CC(=O)Nc1cc(S(=O)(=O)N2CCOCC2)ccc1Cl)C1CCS(=O)(=O)C1 (stereo unspecified),-2.2%,0.0,i,0.8,0.713,-0.4,0.8
COCCCN1C(=O)C(=O)/C(=C(/O)c2ccc(OCC(C)C)cc2C)C1c1cccnc1 (stereo unspecified),9.0%,2.4,i,4.0,0.674,-1.5,10.0
CC(C)(CNC(=O)c1ccc(-c2ccccc2Cl)o1)N1CCOCC1,-3.3%,5.0,i,3.5,0.653,1.0,-0.3
COc1ccc(S(=O)(=O)NC(C)C(=O)Nc2ccccc2)cc1Cl (stereo unspecified),-0.1%,-2.3,i,-1.6,0.713,-0.4,3.1
COc1cccc(NC(=O)CCC(=O)Nc2ccc3nc(N4CCOCC4)cc(C)c3c2)c1,x,3.3,i,-11.7,0.694,-0.2,-176.6
N#Cc1cc2c(nc1SCC(=O)NCc1ccc3c(c1)OCO3)CCCCC2,-24.0%,-3.7,x,x,0.716,0.1,-0.5
COc1ccc(CC(=O)NCC2(N3CCCCC3)CCCCC2)cc1,-11.7%,2.5,i,1.0,0.674,0.3,-5.8
N#Cc1ccc(C(=O)NC2=NCCS2)cc1,-3.2%,-13.3,i,-0.8,0.641,0.2,-1.2
COc1ccccc1-n1c(C)nnc1SCC(=O)Nc1cccc(C(C)=O)c1,4.7%,-1.5,x,x,0.701,-1.2,0.4
COc1ccccc1C(=O)NNC(=O)c1cccc(C)c1,x,0.7,i,-3.5,0.67,3.0,2.1
Cc1ccc(S(=O)(=O)c2cc3ccccc3nc2N)cc1,-11.5%,3.6,i,-1.6,0.71,2.2,-36.9
O=S(=O)(Nc1cccc(S(=O)(=O)N2CCOCC2)c1)c1ccc2c(c1)OCCO2,14.6%,0.8,i,0.0,0.69,-1.0,-0.4
CCc1ccc(NC(=O)[C@H](C)NC(=O)C2CCN(C(=O)[C@@H](NC(=O)OC(C)(C)C)C(C)C)CC2)cc1,-2.8%,-0.6,i,2.0,0.632,1.2,6.0
CCC(C)(C)NC(=O)CN(Cc1cccs1)C(=O)C(=O)Nc1ccc2c(c1)OCCO2,u,1.7,x,x,0.702,4.4,1.7
O=c1c2sccc2n(Cc2cc(=O)n3ccccc3n2)c(=O)n1-c1ccccc1,x,1.2,x,x,0.638,0.8,-37.2
Cc1ccc(C(C(=O)NC2CCCC2)N(C(=O)Cc2cccs2)c2ccc(C)c(C)c2)o1 (stereo unspecified),8.9%,x,x,x,0.668,2.5,-0.3
N#Cc1nc(-c2ccccc2F)oc1NCc1cccc2c1OCO2,4.4%,-2.1,i,-30.0,0.716,0.3,-33.5
Cc1ccc(C)c(NC(=O)NNS(=O)(=O)c2ccc(C)c(C)c2)c1,x,-2.8,i,-6.7,0.67,-1.9,2.0
COc1cc(NC(=O)CCc2nnc3ccc(N4CCN(C)CC4)nn23)cc(OC)c1,x,u,i,-3.8,0.652,-0.8,-0.7
Cc1ccc(C(=O)C(C)N2C(=O)NC(C)(c3ccccc3)C2=O)cc1 (stereo unspecified),3.2%,-3.6,i,-1.3,0.66,-0.5,1.1
Oc1ccc(C[C@H]2CN([C@@H](Cc3ccccc3)CN3CCCC3CN3C(=S)NC[C@@H]3Cc3ccccc3)C(=S)N2CCc2ccccc2)cc1 (stereo partly specified),x,x,i,1.1,x,-7.8,x
Cc1ccc2cc(CN(C(=O)c3ccco3)c3ccccc3)c(=O)[nH]c2c1,-4.7%,2.6,x,x,0.763,2.7,-2.9
C[C@@H](NC(=O)c1nc[nH]c1C(=O)NCC(=O)OC(C)(C)C)c1ccccc1,x,1.7,i,-10.4,x,0.6,-1.2

# Other structures follow:
Compound,Vif TR-FRET,RanGTP-Impb inh,FGF22 binding,AF4-AF9 inh,Ecoli growth,HNF4A DNA FP,UCH37 DUB inh
O=C(O)c1ccc(COc2ccc3c(c2)CCC3)cc1,13.1%,0.0,i,1.1,0.765,2.4,2.5
Cn1cnc2cc(NS(=O)(=O)c3ccc(Br)cc3)ccc21,-12.6%,4.7,x,x,0.797,-2.3,2.8
COc1ccc(-c2nc(CS(=O)CC(=O)NC3CCCCC3C)c(C)o2)cc1 (stereo unspecified),2.9%,4.5,i,-3.5,0.647,1.3,3.6
CCOc1ccc(-c2cc(CCCC(=O)NCc3cccnc3)no2)cc1,4.9%,u,i,-4.7,0.706,-1.0,1.9
Cc1ncsc1CCOC(=O)c1ccc([N+](=O)[O-])cc1,x,12.1,i,2.4,0.665,1.4,2.6
CCn1c(=S)sc2c(=O)[nH]c(C)nc21,-5.7%,-2.5,x,x,0.702,-0.8,6.2
CCCCC12CN3CCN(CC(C3)/C1=N\NC(=O)c1ccccc1N)C2,-8.1%,-0.2,x,x,x,2.1,x
CCCCN(C(=O)CSCC(=O)Nc1ccc(OC)cc1)c1c(N)n(Cc2ccccc2)c(=O)[nH]c1=O,-9.4%,u,i,-2.3,0.624,1.2,0.2
N#C/C(=C\c1cccs1)C(=O)NCc1cccnc1,-6.7%,3.5,i,-0.3,0.684,0.1,7.2
Cc1ccc(Cn2c(C3CCCN3c3nc(-c4cc(Cl)c(N)c(Cl)c4)cs3)nc3cc(Cl)c(Cl)cc32)cc1 (stereo unspecified),x,-2.2,i,-1.6,0.672,7.9,1.0
O=S(=O)(NC1CCCCC1)c1ccc(Br)cc1,1.7%,3.9,x,x,0.758,-3.8,3.5
O=C(Nc1ccccc1N1CCOCC1)c1cccc(S(=O)(=O)N2CCOCC2)c1,3.3%,x,i,-1.5,0.695,-0.8,1.3
CCOC(=O)N1CCN(C(=O)c2ccccc2CCc2ccccc2)CC1,-3.1%,-1.2,x,x,0.727,-1.1,2.5
COC(=O)c1nc2ccccn2c1F,x,-1.2,i,-1.8,0.7,3.1,-5.8
Cc1nc2ccc3nc(NC(=O)c4ccc(S(=O)(=O)N5CCOCC5)cc4)sc3c2s1,2.6%,x,x,x,0.702,0.4,-230.9
